Screens: PubChem, National Center for Advancing Translational Sciences (NCATS)
Menin-MLL FL inh: inhibitors of human menin-MLL interaction, wild-type MLL peptide | Fluorescence polarization, fluorescein-MLL peptide displacement from menin | FP activity change, % at 61.4 µM | 290,000 tested, under 10 active; inconclusive = falling polarisation curve, or a change in total fluorescence; inactive = total fluorescence flat and polarisation flat or rising; no compound was filed as active; the % refers to the polarisation; negative = inhibition;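 further: % of control where 0% means no effect; inhibitors lower the polarisation; unlabelled MLL peptide was the positive control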
ClpP mod: qHTS Assay for Activators of ClpP; ATP-dependent Clp protease proteolytic subunit (Bacillus subtilis (strain 168)), P80244; purified B. subtilis ClpP, FRET peptide cleavage, 20 min; Potency, µM (doses to about 57.5 µM), for the others: at the top dose activity change, negative = active; 340,000 tested, 1.9% active; AID 651965, 2013; active = well fitted falling curve with a large enough effect; inconclusive = small, poorly fitted or top-dose-only effect; inactive = no such curve, though single readings can be large or run the other way; further: potency means the concentration at half of the fitted maximal effect; the source files actives as falling curves though it sought activators and does not explain the sign; nearly all actives have a fitted effect of over 65% in size; many hits overshoot -100%
Target sequence (P80244 whole entry, looked up): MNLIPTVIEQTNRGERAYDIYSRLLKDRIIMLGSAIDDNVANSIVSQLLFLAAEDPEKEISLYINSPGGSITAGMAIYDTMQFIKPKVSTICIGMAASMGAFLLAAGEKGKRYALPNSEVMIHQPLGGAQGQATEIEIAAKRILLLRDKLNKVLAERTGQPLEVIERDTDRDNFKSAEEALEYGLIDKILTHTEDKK
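Purified B. subtilis ClpP, 10 microg/mL final in Tris/HCl pH8 with KCl, BSA, glycerol and Tween-20, cleaved an Abz/nitrotyrosine-quenched decapeptide. Fluorescence (ex 320, em 430) was read at 0 and 20 min at room temperature. Delta was normalized to 5.8 microM ADEP and DMSO/no-enzyme controls.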
TRPV1 potentiator: potentiators of human vanilloid receptor 1 (TRPV1) | Q8NER1 | TRPV1-expressing cells, Fluo-8 calcium influx, capsaicin EC20 potentiation; host cell line not named in the record; control for the full effect not named in the record | potentiation, % at 8.33 µM | 320,000 tested, 0.02% active | AID 540277; active means potentiation above 80%; inconclusive means 30% to 80%; inactive means below 30%; further: 0% is about no effect
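Fluo-8 calcium influx in TRPV1-expressing cells, kinetic read (ex 480/em 520 nm). Compound added and read 3 min for agonist activity, followed by capsaicin at EC20 final and 2 min further read for enhancement.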
Sfp PPTase inh: inhibitors of Bacillus subtilis Sfp phosphopantetheinyl transferase; Q9F4F7; Biochemical Sfp PPTase activity, qHTS; Potency, µM, for the others: max response, negative = inhibition, usual class: inhibitors; 310,000 tested, 3.5% active; active means well fitted inhibition curve with a large enough effect; inconclusive means small, poorly fitted or top-dose-only effect, or another doubt; inactive means no such curve, though single readings can be large or run the other way;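 further: the enzyme is Sfp with the accession as filed and its product quenches rhodamine fluorescence; potency means the concentration at half of the fitted maximal effect; 0% = enzyme reaction without inhibitor and -100% = no enzyme wells; top concentration of the series not given in the record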
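Fluorescence-quenching assay: 15 nM Sfp-PPTase preincubated 15 min at room temperature with compound, then 5 uM rhodamine-CoA and 12.5 uM BHQ-2-labelled YbbR peptide added. Fluorescence (ex 525/em 598 nm) read at start and after 30 min; difference gives rate.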
gsp antagonist: antagonizes gsp, the McCune-Albright syndrome mutation. gsp-mutant cells, cAMP HTRF, 30 min; control for the full effect not named in the record. Potency, µM (highest dose often 76.9 µM), inactives show at the top dose activity change, negative = inhibition, most hits filed as inhibitors. 340,000 tested, 0.4% active; active = falling curve of any shape with a large fitted effect; inconclusive = falling curve, mostly with a smaller effect; inactive = flat or rising curve; cell line not stated here;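 further: intracellular cAMP measured with PDE inhibitor Ro 20-1724 present during compound exposure; potency means the concentration at half of the fitted maximal effect; on the % scale 0 is the no-effect control and ±100 the full control effect; nearly all actives have a fitted effect of over 65% in size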
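G418-selected cells were plated in DMEM/10% FBS for 16-24 h at 37C, then treated with compounds plus the PDE inhibitor […] (300 uM solution added) for 30 min at 37C. Intracellular cAMP was measured by HTRF after 30 min lysis at room temperature.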
TRPML1 inh: inhibitors of human TRPML1 channel | 390,000 tested, 0.02% active | TRPML1-inducible cells, Ca2+ dye fluorescence, FDSS; hits give low values; inhibition of EC80 agonist-evoked calcium signal | activity change, negative = inhibition, % (concentration not given with the values) | Q9GZU1; in the data active means activity change below about -50%; inconclusive means about -30% to -50%; inactive means above about -30%;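 further: stimulus is agonist 54-4 at its EC80 concentration; on the % scale 0 is the no-effect control and ±100 the full control effect; compound concentration not given in the record; the text of the record puts the active cut at -80%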
Target sequence (Q9GZU1 whole entry, looked up): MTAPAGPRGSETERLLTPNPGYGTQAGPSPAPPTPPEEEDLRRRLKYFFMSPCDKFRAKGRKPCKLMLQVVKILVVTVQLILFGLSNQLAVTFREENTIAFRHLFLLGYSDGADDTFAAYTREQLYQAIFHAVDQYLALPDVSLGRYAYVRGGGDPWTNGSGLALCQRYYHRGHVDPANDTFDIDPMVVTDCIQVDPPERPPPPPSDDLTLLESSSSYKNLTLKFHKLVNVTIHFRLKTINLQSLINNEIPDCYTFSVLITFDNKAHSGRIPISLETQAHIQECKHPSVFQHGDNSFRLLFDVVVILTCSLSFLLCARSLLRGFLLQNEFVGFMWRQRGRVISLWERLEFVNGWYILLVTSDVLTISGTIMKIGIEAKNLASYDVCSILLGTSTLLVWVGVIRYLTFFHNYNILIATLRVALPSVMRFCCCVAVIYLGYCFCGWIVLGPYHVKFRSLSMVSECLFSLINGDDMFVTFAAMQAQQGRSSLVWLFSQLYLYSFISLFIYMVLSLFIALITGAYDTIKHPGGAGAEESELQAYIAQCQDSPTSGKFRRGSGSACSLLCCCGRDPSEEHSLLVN
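TRPML1-DL cells, Tet-induced overnight (~16 h, 37 °C) at 1,500 cells/well, were loaded with Ca8 no-wash dye plus quencher for 45-90 min at room temperature. Compounds were pinned during FDSS kinetic reading; agonist 54-4 at EC80 (4 uM final) then added.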
gsp agonist: gsp mutant agonism; Potency, µM (highest dose often 76.9 µM), for the others: at the top dose activation (cAMP increase), usual class: activators; 340,000 tested, 0.13% active; gsp mutant cells, cAMP HTRF, 30 min; control for the full effect not named in the record; active = well fitted activation curve with a large enough effect; inconclusive = small, poorly fitted or top-dose-only effect, or another doubt; inactive = no such curve, though single readings can be large or run the other way; cell line not stated here;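 further: phosphodiesterase inhibitor Ro 20-1724 added with compounds to block cAMP breakdown; potency means the concentration at half of the fitted maximal effect; nearly all actives have a fitted effect of over 60% in size; about a fifth of the inactives were tested at one dose only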
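Cells in DMEM/10% FBS with G418 were pretreated with compounds in DMSO plus […] (300 uM stock) for 30 min at 37C. cAMP was measured by HTRF (cAMP-d2 plus anti-cAMP antibody-K) after 30 min at room temperature.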
Active calls of the source: *; ? = inconclusive; . = no result given; ! = a repeat was not active; [ ] = dose if it differs, or a comment. This is a random part of the collection; any-hit rate near 4.9%.

SMILES	Menin-MLL FL inh	ClpP mod	TRPV1 potentiator	Sfp PPTase inh	gsp antagonist	TRPML1 inh	gsp agonist
O=C1NCN(c2ccccc2)C12CCN(CCCC(c1ccc(F)cc1)c1ccc(F)cc1)CC2	5.2	-1.7%	7	79µM*!	6%	-2	.
O=C(CN1C(=O)C2CCCCC2C1=O)Nc1ccccc1N1CCCC1 (centres undefined)	.	.	10	.	-23%	11	5%[15.4 µM]
Cc1ccc(CNCc2ccccc2Cl)cc1	2.5	-3.3%	0	8%	-13%	17	-11%
CCc1c(C)[nH]c2ccc(OC)cc2c1=S	1.3	.	19	10µM*	2%	-4	12%[15.4 µM]
O=C(N/N=C/CCc1ccccc1)c1ccc(CN2c3cccc4cccc(c34)S2(=O)=O)cc1	1.7	?	-8	3%	-3%	20	7%
CCCC(c1nnnn1CCc1ccccc1)N1CCN(C2CCCC2)CC1 (centres undefined)	-0.9	0.79µM*	1	16%	7%	3	-29%
CCn1cc([N+](=O)[O-])c(C(=O)Nc2nc3ccc(OC)cc3s2)n1	0.2	1.2%	3	7%	-21%	8	-3%
Cc1ccc(-c2csc(N3N=C(c4ccccc4)/C(=C\c4ccc(N(C)C)cc4)C3=O)n2)cc1	4.0	.	3	-5%	.	.	.
O=S1(=O)CCC(S(=O)(=O)N2CCCCCC2)C1 (centres undefined)	-0.6	1.7%	1	-5%	14%	?	2%
CC(C)(C)n1cnc2cc(NS(=O)(=O)c3ccc(Br)cc3)ccc21	-1.4	-9.2%	9	-9%	-21%	11	6%
COc1ccc(N=C2SCC(c3ccc([N+](=O)[O-])cc3)=NN2CCO)cc1	-0.7	.	-11	-17%	?	10	1%[15.4 µM]
O=C(COC(=O)c1ccc2ncsc2c1)Nc1ccccc1Cl	.	4.4%	.	.	5%	40	-15%
COc1cccc(CC(O)CC2c3c(cc4c(c3OC)OCO4)CCN2C)c1 (centres undefined)	.	-4.0%	.	.	-1%	7	2%
CCOc1ccc(/C=N/NC(=S)NC2CC3CC2C2C=CCC32)cc1 (centres undefined)	-2.7	.	6	22%	-1%	-10	0%[15.4 µM]
O=C(N/N=C/c1ccoc1)c1ccc(Cl)cc1	.	-0.3%	19	50µM*	0%	4	24%
N#Cc1cc2c(nc1SCc1cccnc1)CCCC2	-2.3	-9.5%	-2	45µM*	-13%	-14	?
O=C(CSc1ccc(F)cc1)Nc1ccccc1N1CCOCC1	.	0.8%	-19	-1%	3%	5	9%
O=C(/C=C/c1ccccc1)c1ccccn1	4.1	1.2%	-19	28µM*	10%	10	-47%[inhibitor]
NC(=O)CSc1nnc(Cc2csc(Nc3ccccc3)n2)n1Cc1ccccc1	3.1	0.3%	5	20µM*	-5%	5	-34%[inhibitor]
COc1ccc(S(=O)(=O)Oc2ccccc2C(N)=O)cc1	.	5.9%	3	.	9%	23	-16%
O=C(COC(=O)COc1ccccc1)Nc1ccc(Br)cc1Br	.	-5.1%	.	.	2%	20	23%[15.4 µM]
O=C(O)C1CCCN(S(=O)(=O)c2ccc(-c3ccc(=O)[nH]n3)s2)C1 (centres undefined)	.	0.1%	2	7%	4%	-2	9%
Cc1cccc(-c2nc(CS(=O)CC(=O)NCCc3ccc(Cl)cc3)c(C)o2)c1 (centres undefined)	-10	-10%	-13	2%	-5%	32	4%
Cc1cc(C)c(C(=O)COC(=O)Cn2nc(-c3ccccc3)oc2=O)cc1C	.	2.3%	.	.	-5%	4	1%[15.4 µM]
COCCN1CSC(=S)N(Cc2ccco2)C1	?	-4.8%	-2	32µM*	-4%	15	27%
CN(c1ccccc1)S(=O)(=O)c1cccc(NC(=O)c2cc3ccccc3oc2=O)c1	-3.3	.	-2	4%	6%	20	4%[15.4 µM]
CC(=O)NC(Cc1ccccc1C)C(=O)NC1CCN(c2nnnn2-c2ccccc2)CC1 (centres undefined)	1.0	.	10	5%	-6%	-16	-3%[15.4 µM]
Cc1cccc(-c2nc(CS(=O)CC(=O)NC3CCCC(C)C3C)c(C)o2)c1 (centres undefined)	0.7	-1.2%	-47	-16%	-6%	10	8%
O=C(c1ccc(Br)cc1)N(Cc1nc2ccccc2c(=O)[nH]1)C1CCCC1	-1.9	.	6	-3%	?	1	-18%[15.4 µM]
COc1ccc(C(=O)OCCN2CCOCC2)cc1	4.3	0.9%	-2	28%	9%	4	-29%
CCc1ccccc1NC(=O)NC1CCCCC1	1.2	3.2µM*	-11	2%	5%	-3	12%
CCOC(=O)CCCCCC(=O)Nc1ccc2c(c1)C(=O)N([C@H](C)CO)C[C@@H](C)[C@H](CN(C)S(=O)(=O)c1cn(C)cn1)O2	.	-2.0%	.	.	9%	-5	.
Cc1ccccc1SCC(=O)Nc1cc(C(F)(F)F)ccc1N1CCOCC1	.	-3.1%	15	.	-21%	0	-14%[15.4 µM]
CC(=O)Nc1sc2c(c1C(c1ccncc1)N1CCOCC1)CCCC2 (centres undefined)	1.5	.	19	?	-60%	6	22%[15.4 µM]
COc1ccc(/C(C)=N/NC(=O)c2nnn(-c3nonc3N)c2-c2cccs2)cc1OC	.	-26%	-33	13%	30%	-11	-21%
CN(CC(=O)Nc1ccc(F)c(F)c1F)C(=O)c1cc(S(=O)(=O)N(C)C)ccc1N1CCCC1	.	-0.8%	.	.	-5%	10	11%
Cc1ccnc(SC2CC(=O)N(c3ccc(Br)cc3)C2=O)n1 (centres undefined)	1.2	-1.4%	?	-28%	0%	.	-9%
O=C(NCc1ccco1)c1cccc(NS(=O)(=O)c2cccc(F)c2)c1	8.2	1.2%	15	3%	10%	5	-2%[15.4 µM]
Cc1cccc(C(=O)NNC(=O)c2ccc(O)cc2)c1	0.4	-0.6%	-6	11%	-6%	-14	-2%[15.4 µM]
O=C1CS/C(=N/N=C/c2c[nH]c3ccccc23)N1	4.2	.	5	6%	8%	7	-7%[15.4 µM]
CCn1c(=O)cc(SCC(=O)NCCN2CCN(Cc3ccccc3)CC2)c2ccccc21	-0.8	-21%	3	14%	2%	-14	?
Cc1ccc(C(=O)CCC(=O)Nc2ccccc2C)cc1C	-1.0	-1.5%	-21	-1%	1%	7	0%
CC12CCC(C(=O)Nc3ccccc3N3CCOCC3)(CC1=O)C2(C)C (centres undefined)	-2.2	-0.2%	25	-26%	4%	3	-1%
COc1ccc(NC(=O)C2(S(=O)(=O)c3ccc(C)cc3)CC2)cc1OC	-6.4	.	0	15%	8%	-14	20%
COc1ccc(C2=NOC(C(=O)Nc3cccc(O)c3)C2)cc1 (centres undefined)	-0.4	1.8%	-5	-1%	9%	-14	0%[15.4 µM]
Cc1ccc(NC(=S)NCCc2c[nH]c3ccccc23)c(C)c1	-1.3	0.9%	-6	7%	-5%	7	1%
CCC(=O)N1CCN(c2ccc(NC(=O)c3ccc([N+](=O)[O-])o3)cc2)CC1	-8.9	.	?	-1%	-32%	5	10%[15.4 µM]
CCC1Sc2ccccc2N(CC(=O)NCCC(C)C)C1=O (centres undefined)	-2.1	-0.9%	-2	5%	6%	-3	-2%
O=C(O)c1cc(NCc2cccs2)ccc1N1CCOCC1	1.5	-2.1%	-5	18%	0%	-7	-47%[inhibitor]
Cc1nn(-c2ccccc2)c2nc(C(Cl)(Cl)Cl)[nH]c(=O)c12	12	.	11	16%	-17%	8	11%[15.4 µM]
O=C(c1ccc2c(c1)OCO2)N1CCC2(CC1)Oc1ccc(Cl)cc1C(=O)C21CC(c2ccc(Cl)cc2)=NO1 (centres undefined)	2.4	.	-13	3%	.	.	.
C=CC[C@@H](CC(=O)N[C@H](CO)Cc1ccccc1)C(=O)N[C@H](C)COC(=O)[C@@H](CC=C)CC(=O)OC(C)(C)C	.	0.8%	.	.	0%	2	.
CCOC(=O)CNC(=O)c1ccc(Cl)s1	-2.7	.	9	14%	4%	8	5%
COc1cc(C(=O)NCc2ccco2)c(Br)c(OC)c1OC	7.3	-2.5%	-3	18%	-2%	1	-6%
Cc1sc2ncnc(-n3nnc4ccccc43)c2c1C	-1.2	3.5%	18	7%	5%	-11	1%
CCCCN(C)CC(O)Cn1cc(/C=C/C(=O)c2ccc(OCC)cc2)c2ccccc21 (centres undefined)	?	0.4%	-2	45µM*	.	-3	.
CCOC(=O)c1ccc(NC(=S)N2CCSC2c2c(F)cc(F)cc2F)cc1 (centres undefined)	1.2	-2.2%	-12	8%	-15%	3	17%
O=C(NCc1nc2ccccc2[nH]1)C1=C[C@@H](c2csc3ccccc23)C[C@@H](OCc2ccc(CO)cc2)O1	13	-3.3%	26	13%	-19%	-11	.
CCNc1nc(NCC)nc(Oc2ccc(N)cc2)n1	1.4	-0.2%	-6	7%	1%	-11	2%
CS(=O)(=O)N(CC(=O)N1CCN(Cc2ccccc2)CC1)c1ccc(F)cc1	-3.0	1.5%	8	-5%	5%	-7	-2%

Further compounds follow.
SMILES	Menin-MLL FL inh	ClpP mod	TRPV1 potentiator	Sfp PPTase inh	gsp antagonist	TRPML1 inh	gsp agonist
O=C(Cn1cnc2ccccc2c1=O)Nc1nnc(SCc2ccc(Cl)cc2)s1	0.6	-1.5%	-5	-20%	2%	-8	11%
CC(=O)Nc1ccc(N2C(=O)c3cccc(NC(C)=O)c3C2=O)cc1	2.5	.	-3	-2%	-1%	3	-52%[inhibitor]
Cc1ccc(OCCCCNC(C)c2ccccc2)c(C)c1 (centres undefined)	-1.5	.	-23	-13%	11%	31	-80%[inhibitor]
[O-]c1c[n+](-c2ccc(-[n+]3cc([O-])on3)cc2)no1	0.0	.	5	56µM*	-8%	-1	-3%[15.4 µM]
COc1ccccc1NC(=O)CSc1nnc(C2CCCCC2)n1C	6.4	0.6%	-9	1%	-4%	-14	-13%
C#CCOCCOCCOCCNc1nc(N2CCOCC2)nc(N2CCN(C(=O)Cn3cc(CCCCN)nn3)CC2)n1	.	0.7%	.	.	3%	29	.
